Sa growth inh: S. aureus growth inhibition; AID 720641; 0.53% of 170,000 active; S. aureus RN4220 growth, OD600, 20 h, 42 °C; stronger effect = lower value; relative growth, % (test concentration not listed);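 active = growth at 42 °C up to 50% and 20 or more points under that at 30 °C, or under 10% at both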;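 also: 300 nL library stock went into each well; scaled to the means of positive and negative controls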
HCMV UL50-53 inh: inhibitors of HCMV UL50-UL53 nuclear egress complex interaction; HTRF UL50-UL53 interaction, normalized percent inhibition; inhibition, % (no concentration beside the values); 0.15% of 190,000 active;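 active = both replicates at 50% or more, plus weaker picks with an unusually low signal ratio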;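 also: stock transfer was 100 nL into about 20 µL; 0% = negative control wells and 100% = wells with untagged competitor protein; inactives centre near -12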
GIV-Gai inh: GIV-Galpha-i interaction inhibition; 0.42% of 210,000 active; percent of control (FP), % (no concentration beside the values); Galpha-i3/FITC-GIV peptide fluorescence polarization, 90 min; stronger effect = lower value; scaled: aluminum fluoride 0%, vehicle 100%; AID 1224905;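 active = replicate mean at 85% of control or lower, very high polarization wells dropped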;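 also: wells of about 15 µL received 100 nL stock; the first replicate is given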
Target sequence (P08753 whole entry, looked up): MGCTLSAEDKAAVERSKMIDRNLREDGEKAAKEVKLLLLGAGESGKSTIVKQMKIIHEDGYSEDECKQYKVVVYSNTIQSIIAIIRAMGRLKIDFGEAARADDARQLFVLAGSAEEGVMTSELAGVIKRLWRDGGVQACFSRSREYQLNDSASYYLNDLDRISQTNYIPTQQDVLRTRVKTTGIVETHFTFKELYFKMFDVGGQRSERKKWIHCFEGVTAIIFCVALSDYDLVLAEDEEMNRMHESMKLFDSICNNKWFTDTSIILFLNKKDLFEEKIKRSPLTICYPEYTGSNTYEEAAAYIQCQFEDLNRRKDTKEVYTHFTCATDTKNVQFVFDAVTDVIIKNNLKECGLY
Sa growth inh second temp: second read-out of Sa growth inh, no call of its own (marks repeat the call); relative growth, %; measured here: growth at 30 °C;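 optical density after 20 h as mean of two plates; 100% = untreated growth and lower means inhibition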
Active calls of the source: *; · = not tested or not shown; & = joins results of further samples.

Sample of the layout, two compounds:
mol	Sa growth inh	Sa growth inh second temp	HCMV UL50-53 inh	GIV-Gai inh
Cc1cc(-c2ccccc2)nc2cc(C(=O)Nc3cc(C(F)(F)F)ccc3Cl)nn12	105.6	94.2	-36.7	104.2
Clc1ccc(Nc2nnnc3ccccc23)cc1Cl	·	·	-20.1	101.8

This part in full, from the start:
mol	Sa growth inh	Sa growth inh second temp	HCMV UL50-53 inh	GIV-Gai inh
Cc1cc(-c2ccccc2)nc2cc(C(=O)Nc3cc(C(F)(F)F)ccc3Cl)nn12	105.6	94.2	-36.7	104.2
Clc1ccc(Nc2nnnc3ccccc23)cc1Cl	·	·	-20.1	101.8
O=C(Cn1nc2ccc(SC3CCCCC3)nn2c1=O)NC1CCCCC1	·	·	-42.5	102.2
CCN(C(=O)CSc1nc(-c2ccccc2)no1)c1cccc(C)c1	84.2	58.8	-7.2	104.2
Cc1oc2ncn(CC(C)C)c(=O)c2c1C(=O)N=C1NC(=O)CS1	84.6	80.3	-37.4	102.9
Fc1cccc(Cl)c1Cn1nnc(-c2ccccc2C(F)(F)F)n1	99.5	78.5	-10.9	100.3
O=C(OCc1nnc(-c2ccccc2)o1)C1CC(=O)N(c2ccccc2)C1 (configuration not stated)	91.9	99.8	-6.1	111.0
COc1ccc(-c2cc3nc4c(c(N5CC(C)CC(C)C5)n3n2)CCC4)cc1 (configuration not stated)	94.5	81.5	12.9	104.4
CCOC(=O)c1sc(NC(=O)c2cc(C(C)C)on2)c(C(=O)OCC)c1C	87.8	93.3	-0.5	102.4
Cc1ccc(S(=O)(=O)CCS(=O)(=O)c2cccs2)cc1	88.1	92.7	4.5	106.8
C#CCn1c(O)c(N=NC(=O)Cn2nnc(-c3ccccc3)n2)c2cc(Br)ccc21	77.9	48.9	-9.4	98.5
Nc1c(-c2nc(-c3ccc(F)cc3)cs2)c2ccccn2c1C(=O)c1ccc2c(c1)OCO2	104.7	81.7	-17.7	74.9*
CC(C)c1ccc(OCC(=O)c2ccc(O)cc2O)cc1	93.6	78.6	16.3	·
CC(C)C(=O)Nc1nn2c(-c3ccccc3)nnc2s1	·	·	0.9	104.9
O=C(CSc1nnnn1-c1ccccc1)n1c2ccccc2c2ccccc21	109.7	99.8	-2.0	102.8
O=S(=O)(Cc1ccc(F)cc1)Cc1noc(C2CCC2)n1	92.1	81.5	2.7	110.7
CCOC(=O)c1c(C)oc2ccc(OC(=O)Nc3ccc(Cl)cc3)cc12	104.5	86.6	-16.5	·
N#Cc1ccc(CC(C#N)(Cc2ccc(C#N)cc2)c2nnc3n2CCCCC3)cc1	102.1	89.1	-0.4	·
COc1cc(Cl)c(C)cc1NC(=O)Cn1cc(S(=O)(=O)N2CCN(c3ccccc3F)CC2)c2ccccc2c1=O	97.0	95.0	-19.3	105.9
CSC(=S)Nc1ccc(C)cc1	113.1	32.3	-6.8	99.7
O=C(NCc1ccccc1)c1cccnc1NC1CCCCC1	105.3	97.4	13.2	102.6
COc1ccc(Cl)cc1Nc1nc(N)nc(CC(=O)CSc2nc3ccccc3s2)n1	121.7	68.7	·	99.8
CCOc1ccc(CC(=O)NCCS(=O)(=O)N2CCN(c3ccccc3OC)CC2)cc1	111.3	86.6	·	104.2
CCC1=NN(C(=O)Cc2ccc([N+](=O)[O-])cc2)C(O)(c2ccc(Br)cc2)C1 (configuration not stated)	·	·	-26.3	100.3
Cc1nnc(N2CCCC(C(=O)NCCN(C)C)C2)c2nn(-c3ccccc3)c(C)c12 (configuration not stated)	84.7	87.3	·	106.9
Cc1ccc(SC(=O)c2c(C)noc2-c2cc(C)on2)cc1	103.2	95.9	0.8	99.6
O=C(O)C1C2C=CC(O2)C1C(=O)Nc1nc(-c2ccccc2)cs1 (configuration not stated)	106.6	85.1	·	89.5
COc1ccc(Nc2nc(-c3cccc(Cl)c3)c3c(n2)-c2ccccc2OC3)cc1	95.5	91.3	-4.1	100.8
Cc1ccc(C)c(NC(=O)CN(C)c2ncccn2)c1	89.2	86.3	-25.1	·
CCN(CC)C(=O)c1sc(NC(=S)N2CCN(Cc3cnn(CC)c3C)CC2)c(C(=O)OC)c1C	105.4	91.6	-2.6	110.5
COc1ccc(C2CC(=O)C3=C(C2)Nc2ccccc2NC3c2cccc3ccccc23)cc1OC (configuration not stated)	·	·	-17.9	104.6
O=C(OCC(=O)N1CCCCC1)c1cnc(Cl)c(Cl)c1	86.3	83.8	-35.6	·
CCN(CC)c1nc2ccccc2nc1C(=O)Nc1cccc(C(C)=O)c1	105.0	96.0	·	110.3
O=C(Oc1ccccc1OC(=O)c1ccccc1)c1ccccc1	95.7	83.5	·	100.5
COc1ccc(-c2nc(CS(=O)CC(=O)NC3CCCc4ccccc43)c(C)o2)cc1OC (configuration not stated)	132.8	79.5	-1.7	102.8
S=c1ccc2ccccc2[nH]1	33.8	44.8	-72.2	·
CCOC(=O)c1c(N=Cc2ccc(OC)c(OC)c2Cl)n[nH]c1C	91.5	89.8	34.1	105.5
O=C(c1ccc(F)cc1)n1nc(-c2ccc(Cl)cc2)nc1NCc1ccco1	109.3	98.7	4.5	104.5
COc1ccc(/C=[N+](/C)[O-])cc1	·	·	-34.7	109.1
C=CCC(CC=C)(CNC(=O)C(=O)Nc1cc(C)ccc1OC)c1ccc(OC)c(OC)c1	106.7	93.1	-21.3	100.8
COC(=O)C(=C/C(C)=C/c1ccco1)C(=O)OC	103.2	97.7	-1.5	99.9
Cc1ccc(NC(=O)C2Cc3ccccc3O/C2=N\O)cc1C (configuration not stated)	111.8	87.0	-9.3	105.6
O=c1ccc2cc(S(=O)(=O)NCc3ccccc3)ccc2o1	95.9	90.1	-33.0	99.6
CCOC(=O)c1ccc(Nc2c(-c3cccc(O)c3)nc3nc[nH]n23)cc1	100.8	91.8	·	104.4
O=C(CCCc1c[nH]c2ccccc12)Nc1nnc(-c2ccc(Cl)cc2)o1	87.7	76.6	-22.3	·
COc1cc(C2C(C#N)=C(N)Oc3n[nH]c(-c4ccc5c(c4)OCO5)c32)ccc1OC(=O)c1cccs1 (configuration not stated)	·	·	-19.2	99.1
O=C(c1ccccc1)N1CCN=C1SCc1ccccc1	79.2	79.6	·	103.7
Cn1c(SCc2ccc(F)cc2)nc2ccc(C(=O)N3CCc4ccccc43)cc21	98.7	85.9	·	101.6
O=C(OCc1cccc2ccccc12)C1CCN(c2nc3ccccc3o2)CC1	111.2	72.9	4.8	·
Cc1ccc(S(=O)(=O)N2CCN(c3ncnc4sccc34)CC2)cc1C	87.9	90.6	-22.3	·
O=C(c1ccccc1)N(Cc1ccco1)Cc1cccs1	102.8	86.0	-12.0	101.9
Cc1ccccc1N=C1C(=O)N(CN2CCCCC2)c2ccc(Br)cc21	100.3	63.2	·	105.3
COc1cccc(C2NCCc3ccccc32)c1 (configuration not stated)	97.3	90.5	·	103.0
Cn1c(N)c(C(=O)COC(=O)CC2CC3CCC2C3)c(=O)n(C)c1=O (configuration not stated)	102.0	95.2	-18.9	·
Cc1ccc(S(=O)(=O)CC(N)=O)cc1	106.6	100.1	-6.9	100.0
CC[N+](C)(C)c1cccc(O)c1	93.1	90.4	-24.5&2.1&-55.3&-19.6	101.1

More compounds
mol	Sa growth inh	Sa growth inh second temp	HCMV UL50-53 inh	GIV-Gai inh
CC(=O)Oc1ccc2occ(C(=O)c3ccc(F)cc3)c2c1	91.1	74.2	-7.5	·
CCOC(=O)C1(C)C=C(Nc2ccc(C(=O)O)cc2)C(=O)N1c1ccc(C(=O)O)cc1 (configuration not stated)	94.8	101.6	0.2	110.2
COc1ccccc1-c1noc(-c2ccc(NC3CCCCC3)c([N+](=O)[O-])c2)n1	81.7	92.1	-8.6	97.3
CC(=O)OCc1cnc(C)c2oc(=O)c(C(=O)Nc3ccc(C)cc3Cl)cc12	118.5	99.7	·	101.7
Cc1nc(N(C)C)cc(N2CCN(C(=O)Nc3ccc(C)c(C)c3)CC2)n1	·	·	-32.5	96.7
COc1ccccc1NC(=O)CN1CCN(C/C=C/c2ccccc2)CC1	99.4	100.7	-6.2	101.6
Cc1ccc(S(=O)(=O)/C(C#N)=C/C2=Cc3ccccc3OC2)cc1	78.4	86.3	-11.8	·
O=C1N(Cc2ccccc2)c2ccccc2C1(O)c1c[nH]c2ccccc12 (configuration not stated)	93.3	92.0	-17.2	110.5
NS(=O)(=O)c1ccc(CCNC(=O)C(NS(=O)(=O)c2cccc3nsnc23)c2ccccc2)cc1 (configuration not stated)	·	·	-115.3	98.6
O=C(CN1CCOCC1)Nc1nc2ccc(Cl)cc2s1	95.3	61.4	-10.7	99.8
COc1ccc(CNS(=O)(=O)c2cc(Br)cc3c2N(C(C)=O)C(C)C3)cc1 (configuration not stated)	102.3	89.6	16.2	98.6
CN(C)S(=O)(=O)N(CC(=O)N1CCCC1)c1ccccc1	94.8	104.0	-2.3	102.8
CC(C)c1ccc(CN(C(=O)c2cc(-c3ccc4c(c3)OCCO4)on2)C2CCS(=O)(=O)C2)cc1 (configuration not stated)	·	·	-16.3	100.9
COC(=O)c1sccc1S(=O)(=O)N(CC(=O)Nc1ccccc1)c1ccccc1	115.5	82.8	·	102.2
Cc1nc2ccn(Cc3ccco3)c(=O)c2cc1C(=O)NCc1ccc(F)cc1	87.3	79.5	·	101.6
CCOC(=O)c1ccc(N2C(=O)c3n[nH]c(-c4ccco4)c3C2c2ccc(OCC)cc2)cc1 (configuration not stated)	102.9	86.1	-11.9	109.0
COc1ccc(C(=O)CNc2ccccc2CO)cc1	105.5	82.2	-12.0	·
CCCn1c2ccc(F)cc2c2nnc(SCCN(CC)CC)nc21	95.3&84.8	85.1&77.5	-91.7	101.6&99.3
Cc1ccccc1NC(=O)NC1(C(=O)N2CCc3ccccc32)CCCCC1	103.6	84.6	1.4	103.4
CCCc1nnc2n1N=C(c1ccc(Br)cc1)CS2	107.3	84.1	·	106.0
COc1ccc(N2CC(c3nc(-c4cc(OC)c(OC)c(OC)c4)no3)CC2=O)cc1Cl (configuration not stated)	105.1	94.9	·	106.5
Cc1ccc(Cl)cc1N1CCN(c2ncnc3onc(-c4ccc(F)cc4)c23)CC1	96.8	92.3	·	101.9
CCS(=O)(=O)c1ccc(OC)c(NN=c2c(=O)c3ccccc3c2=O)c1	99.3	90.9	-31.0	96.3
CC1(C)CC(N=Cc2ccco2)CC(C)(C)N1	111.7	90.0	·	95.3
CC(=O)OCC1=C(C(=O)O)N2C(=O)[C@@H](NC(=O)CSc3ccncc3)[C@H]2SC1	-0.3*	-1.1*	-14.3	·
CS(=O)(=O)c1ccc2sc(N)nc2c1	84.3	73.7	-21.8	99.3
CCCCN(C)C(=O)C1c2ccccc2C(=O)N(Cc2ccc(F)cc2)C1c1ccc(OC)cc1 (configuration not stated)	126.4	84.1	·	97.9
N#CC1(C#N)C(c2ccco2)OC23CCCCC2C1(C#N)C(=N)O3 (configuration not stated)	98.3	93.5	-35.5	·
CCOc1ccc(NC(=O)c2cc(-c3ccc(OC)c(OC)c3)nc3ccccc23)c([N+](=O)[O-])c1	·	·	-17.8	102.9
COc1ccc(-c2nc(CN3C(=O)COc4ccccc43)no2)c(OC)c1	·	·	-18.9	103.5
COc1cc(-c2cc3n(C)c(C)c(CCC(=O)Nc4ccc(F)cc4)c(=O)n3n2)cc(OC)c1OC	109.9	86.9	·	103.0
COc1ccc(-c2nc(CS(=O)CC(=O)N3CCCC3)c(C)o2)cc1 (configuration not stated)	112.6	85.3	·	103.3

Full records, looked up by structure. Order of values: Sa growth inh, Sa growth inh second temp, HCMV UL50-53 inh, GIV-Gai inh
CS(=O)(=O)c1ccc2sc(N)nc2c1 is listed as 84.3, 73.7, -21.8, 99.3
COc1ccc(CNS(=O)(=O)c2cc(Br)cc3c2N(C(C)=O)C(C)C3)cc1 (configuration not stated) is listed as 102.3, 89.6, 16.2, 98.6
COc1ccccc1-c1noc(-c2ccc(NC3CCCCC3)c([N+](=O)[O-])c2)n1 is listed as 81.7, 92.1, -8.6, 97.3
CCN(C(=O)CSc1nc(-c2ccccc2)no1)c1cccc(C)c1 is listed as 84.2, 58.8, -7.2, 104.2

The list continues:
mol	Sa growth inh	Sa growth inh second temp	HCMV UL50-53 inh	GIV-Gai inh
O=C(c1cc(-c2ccc3c(c2)OCO3)on1)N(C1CCCCC1)C1CCCCC1	89.8	83.6	-24.9	101.1
Cc1c(-c2nnc(C(=O)NCCN3CCCC3)o2)oc2ccccc12	·	·	-15.0	107.0
CCc1nc2ccc(C(=O)NCCc3ccc(SC)cc3)cc2nc1CC	93.0	87.9	·	101.9
Cc1cccc(C2c3cccn3-c3c(c(C)nn3-c3ccccc3)CN2C(=O)Nc2ccc3c(c2)OCO3)c1 (configuration not stated)	·	·	16.3	103.1
O=C(Nc1ccccc1)C1CCCN(c2ccc3cc(S(=O)(=O)N4CCCC4)ccc3n2)C1 (configuration not stated)	·	·	-18.3	104.1
Cc1cc(SC(C)C(=O)O)n2c(nc3ccccc32)c1C#N (configuration not stated)	76.8	42.9	-64.2	·

Compound activity deposited in PubChem BioAssay by ICCB-Longwood Screening Facility, Harvard Medical School.

Not a hit list; any-hit rate near 0.83%.
